# VACV mCherry inh: inhibitors of vaccinia virus infection (mCherry reporter signal); Potency, µM (highest dose often 36.5 µM), for inactives: top-dose activity change, negative = inhibition, most hits filed as inhibitors; AID 720579; actives 0.63% (n = 310,000); Vaccinia virus mCherry reporter infection, fluorescence; about a quarter of the inactives have no number; active = well fitted inhibition curve with a large enough effect; inconclusive = small, poorly fitted or top-dose-only effect; inactive = no such curve, though single readings can be large or run the other way; tested in A549 cells; note: nearly all actives have a fitted effect of over 35% in size; inactives centre near -10
# Vaccinia Venus: vaccinia inhibition (Venus reporter). Vaccinia virus Venus reporter expression, fluorescence. Potency, µM (series often up to 36.5 µM), without a hit: at the top dose activity change, negative = inhibition, hits mostly inhibitors. actives 0.46% (n = 330,000). AID 720580; active means well fitted inhibition curve with a large enough effect; inconclusive means small, poorly fitted or top-dose-only effect; inactive means no such curve, though single readings can be large or run the other way; tested in A549 cells; note: nearly all actives have a fitted effect of over 30% in size; inactives centre near -10
# * hit, by the source's call; i = inactive; ? = inconclusive; nt = not tested or not shown; & = joins results of further samples. % is set by controls: 0 for no effect and ±100 for the full control effect; potency is the fitted concentration of half-maximal effect. Compounds as they come. Share with any hit: about 0.88%.
no.	mol	Vaccinia Venus	VACV mCherry inh
1	CC1(C)Cc2c(c(=S)nc(-c3ccccc3)n2CCCN2CCOCC2)CO1	7.5%	nt
2	Cc1cccc(C(=O)NCC(=O)NCC2COc3ccccc3O2)c1 (centres undefined)	-8.9%	-9.9%
3	CCOc1ccccc1NC(=O)CC(c1ccc(F)cc1)N1Cc2ccccc2C1=O (centres undefined)	-2.0%	-9.0%
4	O=C1c2[nH]nc(-c3ccccc3O)c2C(c2cccc(O)c2)N1Cc1ccncc1 (centres undefined)	-0.8%	-5.0%
5	CO/N=C/CC(=O)c1ccc(OC)cc1	-19.6%	-6.1%
6	Cc1cc(=O)oc2c3c(cc(OCC(=O)NC(Cc4ccc(Cl)cc4)C(=O)O)c12)OC(C)(C)CC3 (centres undefined)	-1.3%	1.2%
7	CN1c2ccccc2C(C)(C)C12CC(CCl)=NO2 (centres undefined)	-12.9%	-13.1%
8	O=C(c1cnn2ccccc12)N1CCN(C2CCCCC2)CC1	-12.5%	-23.7%
9	COc1cc(C(C(=O)NCC2CCCO2)N(C(=O)Cn2nnc3ccccc32)c2ccc(OC)c(OC)c2)ccc1O (centres undefined)	-1.4%	i
10	Cc1ccc(C(C(=O)NC2CCCC2)N(Cc2cccs2)C(=O)CNC(=O)c2cccs2)o1 (centres undefined)	-15.1%	-5.7%
11	CC(=O)[C@@H]1[C@@H]2C(=O)N(Cc3ccccc3)C(=O)[C@@H]2C2c3ccccc3C=CN21 (some centres undefined)	0.0%	i
12	Cc1cc(C)cc(NC(=O)CCCn2c(=O)c3cccn3c3ccccc32)c1	-6.2%	0.3%
13	Cn1c(N)c(C(=O)COC(=O)C2CCCN2C(=O)c2cccs2)c(=O)n(C)c1=O (centres undefined)	-1.9%	3.5%
14	Cn1cc(CN2CCC(C(=O)NC(c3ccc(F)cc3)c3ccc4ccccc4n3)CC2)c2ccccc21 (centres undefined)	?	?
15	COCCCn1c(=N)c(C(=O)NCc2ccco2)cc2c(=O)n3cccc(C)c3nc21	-1.0%	2.2%
16	O=C(O)c1cc(-c2ccc(N3CCOCC3)cc2)nn1-c1ccc(F)cc1	-5.6%	i
17	Cc1nnc(N/N=C/c2cccc(C(F)(F)F)c2)n1N	2.3%	-13.8%
18	CCOc1ccc(S(=O)(=O)N2CCCC2)c2ccccc12	-15.4%	?
19	CC(=O)OCCCNc1cc(Sc2ccc(C)cc2)c2nonc2c1[N+](=O)[O-]	?	?
20	Cc1ccc(NC(=O)CSc2nnc(C)n3c2cc2sccc23)c(C)c1	-8.6%	-13.9%
21	CCCCn1nc(NC(=O)c2cccc(Cl)c2)c2cc3ccccc3nc21	0.9%	-11.0%
22	CN1CCN(c2ccc3sc(-n4ccc5ccccc54)nc3c2)CC1	-15.9%	-14.0%
23	Cn1nnnc1SCC(=O)Nc1ccc2c(c1)OCO2	-2.2%	i
24	CC(NC(=O)c1ccc2nc(Cc3cccc(Cl)c3)oc2c1)c1ccncn1 (centres undefined)	-9.0%	-14.9%
25	O=C(O)C1CSC(c2ccccc2)N1C(=O)c1ccco1 (centres undefined)	4.5%	-2.9%
26	COc1cc([N+](=O)[O-])c(OC)cc1SCc1n[nH]c(=S)n1-c1ccc(C)cc1	?	?
27	Cc1ccc(CN2CCN(C3CCN(C(=O)OC(C)(C)C)CC3)C(=O)C2=O)cc1	2.3%	-5.7%
28	CCCNC(=O)c1ccccc1NC(=O)CN(c1ccccc1)S(=O)(=O)N(C)C	-1.6%	i
29	O=C1C=C(NCc2ccncc2)CC(c2ccccc2)C1 (centres undefined)	-14.9%	nt
30	Cc1ccc(OCc2nnc(SCc3nc4ccccc4[nH]3)n2Cc2ccco2)cc1	?	nt
31	Cn1c(=O)c2sccc2n(Cc2cccc(Br)c2)c1=O	-19.1%	-9.5%
32	COc1ccccc1C1CCN(C(=O)c2ccc(Cl)cc2)CC1	-8.2%	i
33	Cc1ccc(N/N=C2/CCCNC2=O)cc1	-20.3%	nt
34	COc1cc(/C=C(/NC(=O)c2ccc(Cl)cc2Cl)C(=O)O)cc(OC)c1OC	-7.6%	i
35	COc1ccc(OC)c(-n2cc3c(=O)n(C)c(=O)n(C)c3c2)c1	-27.9%	nt
36	COC(C[C@@H]1O[C@@H]1[C@@H](O)[C@@H](C)OCc1ccccc1)OC	-3.8%	-1.9%
37	CCOC(=O)c1cc(OC(=O)c2cccc(F)c2)n(-c2ccccc2)n1	-1.7%	2.0%
38	CCN(CC)c1ccc(-n2c(C)cc(C=O)c2C)cc1	-9.3%	-5.4%
39	CC(=O)O/N=C(\N)c1ccc(-c2csnn2)cc1	-5.9%	-9.2%
40	COc1ccnc(CS(=O)c2nc3ccc(OC(F)F)cc3[nH]2)c1OC (centres undefined)	-16.6%	-4.2%
41	CC(C)c1cc2c(c(O)c1O)[C@@]13CCCC(C)(C)C1CC2OC3=O (some centres undefined)	-18.6%	-25.3%
42	O=C(CC1SC(=Nc2ccc3c(c2)OCCO3)NC1=O)Nc1ccc(F)cc1F (centres undefined)	-10.1%	1.3%
43	CCNC(=O)C(=O)NCC1OCCCN1S(=O)(=O)c1ccc(F)cc1C (centres undefined)	-10.7%	-8.0%
44	COc1ccc2oc(C)c(C(=O)Cn3ccnc3)c2c1	-8.5%	-19.2%
45	COc1cccc(NC(=O)Cn2c(=O)oc3cc(S(=O)(=O)N4CCCC4)ccc32)c1	2.3%	?
46	O=C1c2ccccc2NC(c2ccncc2)N1c1ccccn1 (centres undefined)	-13.1%	nt
47	CCOC(=O)c1c(NC(=O)/C=C/C(=O)O)sc(C)c1-c1ccc(C(C)(C)C)cc1	?	?
48	CCOC(=O)c1sc(=S)n(-c2ccccc2Cl)c1SC	-12.1%	i

# The closing 2 compounds of the section above come first, to join the parts.
no.	mol	Vaccinia Venus	VACV mCherry inh
47	CCOC(=O)c1c(NC(=O)/C=C/C(=O)O)sc(C)c1-c1ccc(C(C)(C)C)cc1	?	?
48	CCOC(=O)c1sc(=S)n(-c2ccccc2Cl)c1SC	-12.1%	i
49	CCc1ccc(NC(=O)CSc2nc(=O)n3cc(C)ccc3n2)cc1	-10.3%	i
50	C/C(=N\Nc1ccc([N+](=O)[O-])cc1)c1ccc(O)cc1	-9.7%	-25.4%
51	COc1ccc2oc(C(=O)OCC(=O)N(Cc3ccccc3)C(C)C)c(C)c2c1	-21.9%	i
52	CC1=C(C(=O)Nc2ccc(C)cc2C)C(c2ccccc2F)n2nc(SCC(=O)c3ccc(C)cc3)nc2N1 (centres undefined)	-2.2%	-8.0%
53	O=C(Nc1cc2c3c(c1)CC(=O)N3CCC2)c1ccc(Cl)cc1	-10.2%	-3.0%
54	CCn1cc(C(=O)O)c(=O)c2cc(F)c(N3CCN(C(=S)NC(=O)c4ccc(F)cc4)CC3)cc21	-13.3%	i
55	O=C(O)C1CCN(C(=O)c2cccc3ccccc23)CC1	-4.4%	i
56	CCCCN(C(=O)CCNC(=O)NC12CC3CC(CC(C3)C1)C2)c1c(N)n(CCC)c(=O)[nH]c1=O	-22.6%	-28.1%
57	O=C(CCc1nc2ccccc2c(=O)[nH]1)Nc1nc(-c2cccs2)cs1	-1.1%	-8.0%
58	CCC(NC(=O)NCc1ccccc1)(C(F)(F)F)C(F)(F)F	-11.3%	-14.6%
59	COCCn1c(=NC(=O)CSC(C)=O)sc2cc(F)ccc21	4.8%	nt
60	CCOC(=O)c1cnc2ccc(C(=O)OC)cc2c1Nc1ccc(C(=O)O)cc1	-7.7%	-1.2%
61	Cc1ccc2c(c1)N(S(=O)(=O)c1ccc3c(c1)NC(=O)CC(=O)N3)CCO2	2.0%&-8.4%	-13.5%&-18.4%
62	COc1ccc(NC(=O)N(C)C[C@H]2Oc3c(NC(=O)NC4CCCCC4)cccc3C(=O)N([C@H](C)CO)C[C@@H]2C)cc1	0.0%	-1.0%
63	Cc1ccc(C(O)CSc2nnc(-c3ccc4ccccc4c3)n2C)cc1 (centres undefined)	-19.7%	-16.3%
64	CC(C)(C)OC(=O)C[C@H]1C/C=C\C[C@H](CC(=O)N(CCO)Cc2ccccc2)C(=O)N[C@@H](c2ccccc2)COC1=O	-24.5%	i
65	Cc1ccc2cc(CN(CC3CCCO3)C(=S)Nc3ccccc3)c(=O)[nH]c2c1 (centres undefined)	-27.2%	?
66	COc1ccc(-c2nnc(SCC(=O)NC3CCCCC3)o2)cc1	-6.0%	-9.7%
67	Cc1ccc(Nc2nnc(SCC(=O)Nc3ccccc3[N+](=O)[O-])s2)cc1	?	?
68	CCCc1cc(C(=O)Nc2ccccc2C(=O)OC)no1	-2.8%	i
69	Cc1ccc(-c2nc(C(=O)O)cs2)cc1	-4.8%	i
70	COC(=O)C1(C(=O)OC)C/C=C\CN(S(=O)(=O)c2ccccc2[N+](=O)[O-])CC1	11.5%	27.0%
71	Cc1[nH]n(-c2ccccc2)c(=O)c1-c1ccc(Cl)cc1	-26.7%	-31.4%
72	CC(=O)c1ccc(OC(C)C)c(Cc2c(O)nc(N)[nH]c2=O)c1	-19.9%	-14.8%
73	COc1cccc(C(c2nnnn2Cc2ccccc2)N2CCC3(CC2)C(=O)NCN3c2ccccc2)c1OC (centres undefined)	-12.6%	i
74	Cc1ccccc1CSc1nc2ccccc2c(=O)[nH]1	-6.5%	-0.1%
75	O=C(NNC(=S)NC(=O)c1cccs1)c1cccnc1	-8.3%	-15.3%
76	CCOC(=O)c1nnc(-c2cccs2)nc1Oc1ccccc1C(=O)OC	-6.1%	-14.4%
77	CCOC(=O)c1c(C)c(-c2ccccc2)n(CC(=O)NCc2cccc(OC)c2)c1C	-21.9%	?
78	Cc1ccc(NC(=O)C2Cc3ccccc3CN2C(=O)c2ccccc2)cc1Cl (centres undefined)	-13.0%	-6.8%
79	CC(NC(=O)C12CC3CC(CC(O)(C3)C1)C2)c1ccccc1 (centres undefined)	0.0%	i
80	O=C(CN1C(=O)c2ccccc2S1(=O)=O)Nc1ccon1	-10.2%	-9.7%
81	CCCNC(=O)C1(C)CCCN(Cc2cccc(C#N)c2)C1 (centres undefined)	13.0%	i
82	O=C(COC(=O)c1ccc2[nH]c3c(c2c1)CCCC3)Nc1ccccc1Cl	-2.5%	5.4%
83	COC(=O)c1[nH]c2ccc(F)cc2c1NC(=O)C1=COCCO1	-18.2%	nt
84	COc1ccc(-c2cc(OC)c3c(C)oc(C)c3c(=O)c2)cc1OC	-0.9%	i
85	COCC(=O)Oc1c(S(=O)(=O)c2ccc(C)cc2)c(C)nn1C(C)(C)C	-25.1%	-9.2%
86	N#C/C(=C(/O)COC(=O)CCC1CCCCC1)c1nc2ccccc2[nH]1	11.8%	-11.4%
87	CCCOc1ccc(C2C(C(=O)c3ccc(C)o3)=C(O)C(=O)N2CCCn2ccnc2)cc1 (centres undefined)	-10.3%	-15.6%
88	COCCCNc1c2c(nc3nnnn13)CCCC2	-2.4%	i
89	CN1C(C(=O)NCc2ccc(OC(F)(F)F)cc2)CC2Cn3c(nc4ccccc43)C21 (centres undefined)	-21.3%	-14.5%
90	COc1ccc(Nc2nnc(-c3ccccc3)c3ccccc23)cc1C(=O)N1CCCCC1	-27.5%	-22.0%
91	OC(CCN1CCCC1)(c1ccccc1)C1CCCCC1 (centres undefined)	-17.4%&-11.0%	-16.7%
92	CCOc1ccccc1N1CCN(c2nc(N)c(C#N)c(CC#N)c2C#N)CC1	-16.9%	nt
93	COc1ccc(OC)c(NC(=O)C2CC(=O)N(CCc3ccc(F)cc3)C2)c1 (centres undefined)	0.5%	-13.3%
94	COc1ccccc1CCNC1CCC(C(C)(C)C)CC1 (centres undefined)	-25.1%	?
95	O=C(Cn1nnc(-c2ccccc2)n1)NCc1ccccc1	-5.0%	-11.0%
96	COc1ccc(NC(=O)COC(=O)c2c(C)noc2C)c(OC)c1	-17.5%	nt
97	CCO[C@H]1OC(C(=O)NCc2nc3ccccc3[nH]2)=C[C@@H](c2csc3ccccc23)[C@@H]1CCCO	-18.7%	10.6%
98	CCCCC(=O)N/N=C/c1c(O)n(CC)c(=S)n(CC)c1=O	12.6µM*	?
99	COC(=O)Cc1c(C)c2ccc(OCC(C)=O)c(C)c2oc1=O	-5.6%	nt
100	COC(=O)c1c(NC(=O)CS(=O)(=O)c2ccc(C)cc2)sc2c1CCCC2	-3.8%	-1.3%
101	C/C(=N/NC(=O)c1cccc(N2CCCC2=O)c1)c1ccc(Br)cc1	-15.0%	-13.0%
102	Cc1c(Cc2ccc3c(c2)OCO3)sc(NC(=O)c2ccccc2)c1C(N)=O	-22.4%	-13.9%
103	O=C1CCC(=O)N1c1ccccc1OS(=O)(=O)c1ccccc1	-7.3%	-6.4%
104	NC(=S)N/N=C/c1ccc(-c2cc(Cl)ccc2Cl)o1	3.16µM*	3.16µM*

# New compounds follow.
no.	mol	Vaccinia Venus	VACV mCherry inh
105	CCOc1ccccc1NC(=O)c1ccc2c(Cl)c3c(nc2c1)CCC3	-15.5%	-23.8%
106	CCOC(=O)N1CCN(C(=O)c2ccc3c(SCC(=O)O)c4c(nc3c2)CCCC4)CC1	0.4%	-4.6%
107	CCOCCCNC(=O)c1cccs1	-12.8%	nt
108	CCOC(=O)C1(C)NC(c2ccco2)C2C(=O)N(CC)C(=O)C21 (centres undefined)	-10.8%	-27.1%
109	CC(=O)Nc1ccc(NC(=O)C(C)N(C)CC(=O)Nc2ccccc2Br)cc1 (centres undefined)	-16.7%	i
110	COc1ccc(S(=O)(=O)Nc2cc(C)ccn2)cc1OC	-4.0%	-10.5%

# Bioassay records deposited in PubChem by National Center for Advancing Translational Sciences (NCATS).
